# Calb FLC – C. albicans growth inhibition with fluconazole, primary screen, CaCi-2 strain, Alamar Blue fluorescence | C. albicans CaCi-2 (fluconazole-resistant clinical isolate) + fluconazole, 48 h | actives 0.57% (n = 300,000) | growth inhibition, % (test concentration not listed);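 active means most replicates above 75%; inconclusive means exactly half above 75%; inactive means most below 75%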;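 further: all wells also contain fluconazole at 8 µg/ml as a sub-toxic cotreatment; 0% = median of DMSO wells and 100% = median of geldanamycin control wells; wells of about 8 µL received 7.5 nL stock; the first replicate is given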
# LANA-H2B inh – blockers of LANA interaction with H2A/H2B – biochemical, FP readout, HTS, primary screen; actives 0.6% (n = 320,000); inhibition, % (test concentration not listed); cell-free LANA-H2A/H2B peptide, fluorescence polarization; in the data active means inhibition mostly above about 10%, no sharp cut-off; inactive means mostly below about 6.7%;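 further: stock transfer was 7.5 nL into about 10 µL; 0% = median of vehicle wells and 100% = median of positive control wells; one replicate is shown; the record names a cut of 25% in any replicate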
# Target sequence (Q9QR71 whole entry, looked up): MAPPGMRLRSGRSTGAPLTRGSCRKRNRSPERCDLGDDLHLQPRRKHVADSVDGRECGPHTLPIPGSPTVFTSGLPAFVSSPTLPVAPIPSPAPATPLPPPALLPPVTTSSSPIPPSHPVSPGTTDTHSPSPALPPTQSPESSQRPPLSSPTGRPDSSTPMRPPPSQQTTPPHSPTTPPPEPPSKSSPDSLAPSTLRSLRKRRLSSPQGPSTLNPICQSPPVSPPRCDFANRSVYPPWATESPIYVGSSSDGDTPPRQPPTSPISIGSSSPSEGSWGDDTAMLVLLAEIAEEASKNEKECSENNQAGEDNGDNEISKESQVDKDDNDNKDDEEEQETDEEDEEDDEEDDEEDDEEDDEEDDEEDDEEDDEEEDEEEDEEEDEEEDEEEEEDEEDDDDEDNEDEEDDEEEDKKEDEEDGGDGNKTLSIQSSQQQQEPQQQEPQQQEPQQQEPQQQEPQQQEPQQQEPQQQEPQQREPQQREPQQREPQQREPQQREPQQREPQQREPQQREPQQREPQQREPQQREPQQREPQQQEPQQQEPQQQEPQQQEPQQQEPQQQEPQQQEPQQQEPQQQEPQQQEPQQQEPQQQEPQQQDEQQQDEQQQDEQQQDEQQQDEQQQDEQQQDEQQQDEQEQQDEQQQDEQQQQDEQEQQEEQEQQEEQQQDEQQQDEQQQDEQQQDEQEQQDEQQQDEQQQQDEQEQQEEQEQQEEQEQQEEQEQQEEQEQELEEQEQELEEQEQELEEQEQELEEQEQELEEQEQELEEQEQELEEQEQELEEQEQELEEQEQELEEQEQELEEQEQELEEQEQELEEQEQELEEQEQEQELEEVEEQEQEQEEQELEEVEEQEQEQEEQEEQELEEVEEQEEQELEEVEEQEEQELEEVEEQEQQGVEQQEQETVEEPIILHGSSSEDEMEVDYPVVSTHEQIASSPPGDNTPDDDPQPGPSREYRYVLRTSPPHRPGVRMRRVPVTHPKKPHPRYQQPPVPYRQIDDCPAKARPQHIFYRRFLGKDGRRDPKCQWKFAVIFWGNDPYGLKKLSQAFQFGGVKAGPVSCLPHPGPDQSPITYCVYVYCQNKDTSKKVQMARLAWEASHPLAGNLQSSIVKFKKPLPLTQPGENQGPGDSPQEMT
# ALR H2O2 inh – inhibitors of human ALR sulfhydryl oxidase, primary screen, biochemical, H2O2 detection, HRP-luminol luminescence, single point | purified ALR, DTT oxidation | inhibition, % (test concentration not listed) | actives 3.8% (n = 290,000);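 active means mean and each replicate at 75% or more; inconclusive means only one of the two met; inactive means neither met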;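 further: stock transfer was 7.5 nL into about 7.5 µL; 0% = neutral wells and 100% = wells with inactivated enzyme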
# Beta apoptosis – inhibitors of cytokine-induced beta cell apoptosis, primary screen, luminescence. protection from apoptosis, % (concentration not given with the values). AID 435005, 2010. INS-1E cytokine-induced death, ATP luminescence, 48 h; percent of positive-control rescue, neutral wells zero. actives 0.8% (n = 300,000);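 active means all replicates at 75% or more, or half of them and the mean; inconclusive means half reach 75% but not the mean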;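 further: 0% = cytokine-treated negative control wells and 100% = positive control rescue; higher means more ATP so stronger rescue from cytokine killing; wells of about 40 µL received 100 nL stock; the first replicate is given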
# rRNA inh HTS – reduced GFP signal of wild-type E. coli, primary screen, bacterial rRNA inhibitor project, GFP/RFP fluorescence, OD600, single point | E. coli WT GFP vs humanized-ribosome RFP mutants, 24 h; stronger effect = lower value; DMSO median 0, no signal -100 | GFP signal change (wild-type ribosome), % (concentration not given with the values) | actives 1.6% (n = 350,000) | AID 720706, 2013;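 active means significant combined selectivity score with lowered wild-type GFP, culture density cut under 30%, mutant RFP and density less affected; inactive means any of these conditions unmet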; further: one replicate is shown; some compounds called inactive have numbers as strong as hits
# A1 inh – caspase 3/7 activation in MEF A1-2A-BIM cells, primary screen, A1 inhibitor project, cell-based, luminescence, HTS; Caspase-Glo 3/7 luminescence, 3 h; percent of clofoctol response, vehicle zero; caspase activation, % (test concentration not listed); actives 0.066% (n = 330,000); AID 2462, 2010;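 active means over half of replicate activation scores above 10%, or exactly half above 10 with the replicate mean above 10; inconclusive means replicate mean below 10 yet half the replicates above 10; inactive means over half of replicates below 10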;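 further: wells of about 30 µL received 50 nL stock; many hits fall short of the cut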
# B2AR ag – beta2AR agonists driving receptor internalization, primary screen, cell-based, FAP fluorogen, flow cytometry. Beta-2 adrenergic receptor (Homo sapiens), P07550. Am2.2-beta2AR cells; reference of the scale not given here. response, % (concentration not given with the values). actives 0.43% (n = 340,000). AID 504454, 2011;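 active means response above a set limit, near 3 SD of response in nonfluorescent compounds, cut at about 42% in these data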;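 further: stock transfer was 100 nL into about 11 µL; a reference agonist was the positive control; negative values mostly stem from fluorescent compounds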
# T cruzi repl – inhibitors of intracellular T. cruzi growth, primary screen, luminescence, NIH3T3 host cells; inhibition, % (no concentration beside the values); T. cruzi beta-gal in NIH3T3, 90 h; actives 1.4% (n = 300,000);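 active means mean inhibition across valid replicates above about 55%, limit read from the data; inconclusive means mean below that limit but half or more replicates reach it; inactive means mean below it, under half of replicates reach it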;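 further: signal also drops with host cell toxicity which is not excluded here; 0% = plate median of DMSO wells and 100% = zero luminescence signal; higher percent means less beta-gal luminescence so fewer parasites; stock transfer was 50 nL into about 50 µL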
# rRNA inh HTS OD600 – further read-out of rRNA inh HTS, marked with its call; OD600 change, %; measured here: OD600 growth;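 optical density of the mix in the first replicate; 0 = DMSO median and -100 = no signal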
# rRNA inh HTS RFP – further read-out of rRNA inh HTS, marked with its call; RFP signal change, %; measured here: RFP humanized mutant strains;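 first replicate; 0 = DMSO median and -100 = no signal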
# * hit, by the source's call; ? = inconclusive; . = not tested or not shown. This is a subset (hit frequency here may not be typical).
compound	Calb FLC	LANA-H2B inh	ALR H2O2 inh	Beta apoptosis	rRNA inh HTS	rRNA inh HTS OD600	rRNA inh HTS RFP	A1 inh	B2AR ag	T cruzi repl
CC(C)(C)C(=O)NC1(C(F)(F)F)N=C2SCCN2C1=O (stereo unspecified)	-25	6.3	-9	-1	.	.	.	?	7	-14
CC1CCCCC12NC(=O)N(CC(=O)NC(=O)Nc1ccc3c(c1)OCCO3)C2=O (stereo unspecified)	8	8.9	-24	-9	.	.	.	-0.6	4	-11
COc1ccc(C)cc1NC(=O)C(OC(=O)c1cc(C)oc1C)c1ccccc1 (stereo unspecified)	1	5.0	0	-6	.	.	.	0.8	-6	20
COc1ccc(CNC2CC(=O)N(C)C2=O)cc1 (stereo unspecified)	-4	-1.7	-7	3	.	.	.	1.4	5	-21
O=C(Nc1nc2c(F)cc(F)cc2s1)C1CC(=O)N(Cc2ccco2)C1 (stereo unspecified)	-1	0.9	2	0	9	1	13	0.1	7	-7
O=S(=O)(CC(c1ccccc1)N1CCCCC1)c1ccc(Cl)cc1 (stereo unspecified)	0	3.0	1	0	0	6	1.2	0.9	7	0
O=C(N/N=C/c1ccc([N+](=O)[O-])s1)c1cccc(Br)c1	23	-6.3	.	60	.	.	.	0.0	1	93*
Brc1ccccc1-n1nnc(-c2nccs2)n1	5	9.0	-6	-1	-8	-9	-4.9	-9.3	-9	-8
Fc1ccc(CN2CCCCCC2)c(F)c1	.	0.4	-3	-5	.	.	.	-0.1	10	.
COc1cc(S(=O)(=O)N2CCCCC2)c(OC)cc1Br	-14	-0.4	-2	-7	-18	-20	0.4	1.3	10	4
O=C(COc1ccc(Cl)cc1Cl)Nc1ccc(S(=O)(=O)NC2=NCCCCC2)cc1	-16	-1.4	-7	-12	.	.	.	-0.2	-2	-10
O=C(NC(=S)Nc1ccc2c(c1)OCCO2)c1ccco1	24	1.8	-6	-1	.	.	.	-8.1	-9	-9
Nc1nnc(CSCc2ccc(Cl)cc2)s1	-3	1.3	-4	-9	.	.	.	-0.7	-5	-22
c1ccc2nc(N3CCOCC3)c(N3CCOCC3)nc2c1	3	4.5	-2	-8	.	.	.	0.4	-8	-13
CC(=O)c1ccc(NC(=O)CN2C(=O)COc3ccc(S(=O)(=O)N4CCCC4)cc32)cc1	-4	0.8	-1	3	9	15	6.3	0.6	1	-31
Cc1ccc(C(=O)NC2CCCC(C)C2C)cc1S(=O)(=O)N1CCCCC1 (stereo unspecified)	3	-1.3	-6	22	0	-19	-2.5	-0.1	12	20
COc1cc2cnc(Cl)nc2cc1OC	?	1.9	.	6	.	.	.	0.5	8	-3
COc1ccc(OCc2nnc(SCC(=O)NC3CC3)n2C)cc1	-18	3.7	-13	-3	1	0	-1.3	2.4	-3	-11
COc1ccc(N2C(=O)/C(=C\c3ccco3)N=C2SCC(=O)N(C(C)C)C(C)C)cc1Cl	-8	3.0	18	3	.	.	.	-0.5	-4	-3
COc1cccc(Nc2nnc(SCC(=O)N3CC(C)OC(C)C3)s2)c1 (stereo unspecified)	37	-7.1	1	3	-11	-7	3.8	-0.2	1	18
CCc1cc(=O)[nH]c(SCC(=O)NCC2CCCO2)n1 (stereo unspecified)	-5	-0.4	-3	.	5	2	-4.6	0.5	-2	-14
Cc1nccn1CCN(C)Cc1cn(Cc2ccccc2)nc1-c1ccc2c(c1)OCO2	41	4.0	0	-1	3	-8	-1.3	-0.1	2	21
OC1CCN(C(=S)NCCc2ccccc2)CC1	2	-7.0	-5	-2	.	.	.	0.0	-9	-6
N#Cc1ccc(CSc2nnc(NC(=O)CCc3nc4ccccc4c(=O)[nH]3)s2)cc1	-7	4.0	61	.	8	8	1.3	-0.2	8	-6
CCOC(=O)CSc1nnc2n(C3CCCCC3)c(=O)c3c4c(sc3n12)CCCC4	1	-4.9	-1	-4	4	5	-0.2	-0.1	-9	35
CNC(=O)COc1ncnc2scc(-c3ccc(F)cc3)c12	-32	-1.4	.	-7	-8	-22	1.3	-2.8	13	-10
O=c1[nH]c2ccc(Cl)cc2c(-c2ccccc2)c1SC(=S)N1CCCCC1	-3	1.3	10	0	.	.	.	-0.6	20	10
CC(C(=O)c1ccc(-c2ccccc2)cc1)[n+]1cccc(C(N)=O)c1 (stereo unspecified)	18	-1.7	1	-3	4	-1	0.5	0.6	4	-1
Cn1c(C(=O)N2CCC(C(=O)N3CCN(Cc4ccc5c(c4)OCO5)CC3)CC2)cc2sccc21	2	-2.5	0	14	1	-19	-0.2	-0.3	-12	1
O=C1CC(SC2=NCCS2)C(=O)N1c1ccc(Cl)cc1 (stereo unspecified)	36	-0.7	-1	2	.	.	.	0.7	3	-29

# Grouped by structure, the entries above with bromine
compound	Calb FLC	LANA-H2B inh	ALR H2O2 inh	Beta apoptosis	rRNA inh HTS	rRNA inh HTS OD600	rRNA inh HTS RFP	A1 inh	B2AR ag	T cruzi repl
O=C(N/N=C/c1ccc([N+](=O)[O-])s1)c1cccc(Br)c1	23	-6.3	.	60	.	.	.	0.0	1	93*
Brc1ccccc1-n1nnc(-c2nccs2)n1	5	9.0	-6	-1	-8	-9	-4.9	-9.3	-9	-8
COc1cc(S(=O)(=O)N2CCCCC2)c(OC)cc1Br	-14	-0.4	-2	-7	-18	-20	0.4	1.3	10	4

# Following part:
compound	Calb FLC	LANA-H2B inh	ALR H2O2 inh	Beta apoptosis	rRNA inh HTS	rRNA inh HTS OD600	rRNA inh HTS RFP	A1 inh	B2AR ag	T cruzi repl
COc1ccc2cc(C(=O)C3CCCN(Cc4cccc(C)n4)C3)ccc2c1 (stereo unspecified)	-6	-1.3	-32	1	-46	-54	-18	0.1	-7	18
CN(C(=O)C(=O)c1cn(CC(=O)N2CCCC2)c2ccccc12)C1CCCCC1	-1	3.6	-16	-8	6	6	5.0	0.3	-5	2
CCCOC(=O)C(C)n1cnc2scc(-c3ccc(C)cc3)c2c1=O (stereo unspecified)	-18	-0.5	-1	-2	2	-1	-1.0	1.5	-2	0
CCOC(=O)C1CCCN(CC(=O)Nc2nc(-c3ccccc3)cs2)C1 (stereo unspecified)	1	-2.6	-9	.	-39	-40	-8.1	0.4	16	-7
CCOC(=O)C(NC(=O)CC)(Nc1ccc(S(=O)(=O)Nc2cc(C)on2)cc1)C(F)(F)F (stereo unspecified)	5	0.1	1	-5	.	.	.	0.0	3	8
Cc1ccc(C(=O)N/N=C\c2cc3c(cc2Br)OCO3)s1	-4	-0.9	-3	11	.	.	.	0.0	3	13
CCCNC(=O)COC(=O)/C=C/c1ccc(C)o1	?	3.5	?	-7	30	13	-0.1	0.4	9	-17
O=C(COc1cccc2ccccc12)NNC(=O)c1cccs1	4	-6.2	-1	-2	.	.	.	0.4	2	-8
COc1ccc(NC(=O)c2cc([N+](=O)[O-])ccc2N2CCCC2)cc1	-17	5.0	-2	.	3	3	-0.6	0.0	8	9
COc1ccc(S(=O)(=O)N2CCCC2C(=O)Nc2ccc(C(C)=O)cc2)cc1 (stereo unspecified)	-1	-0.6	-5	-3	3	8	2.4	0.8	3	-7
COc1cccc(OC)c1C(=O)Nc1cccc(S(=O)(=O)Nc2ccccc2Cl)c1	.	-1.4	2	-3	-20	-22	-3.0	1.4	1	.
COc1ccc(S(=O)(=O)N2CCN(C(=O)c3cc(C)nc4ccccc34)CC2)cc1OC	.	-6.7	-3	-16	3	-4	0.8	1.8	-2	.
CCC/C(O)=C1\C(=O)CC(C)(C)CC1=Nc1cccc([N+](=O)[O-])c1	9	-0.7	-25	1	-5	-7	-1.9	0.4	-10	6
CCCCCC(=O)NC(Nc1ccc(S(N)(=O)=O)cc1)C(Cl)(Cl)Cl (stereo unspecified)	-1	-4.7	15	-1	.	.	.	0.9	17	-9
CCN(CC)S(=O)(=O)c1ccc(C(=O)N2CCCCC2)cc1	-16	2.6	-7	-6	.	.	.	0.6	-2	-14

# Later entries.
Molecule,Calb FLC,LANA-H2B inh,ALR H2O2 inh,Beta apoptosis,rRNA inh HTS,rRNA inh HTS OD600,rRNA inh HTS RFP,A1 inh,B2AR ag,T cruzi repl
O=C(OCc1cc(=O)n2c(n1)sc1ccccc12)c1ccc2c(=O)n3c(nc2c1)CCC3,25,1.3,-9,-7,.,.,.,-0.8,-26,-44
COC(=O)c1cc(Cc2ccc(N)c(C(=O)OC)c2)ccc1N,-19,2.6,-41,13,.,.,.,-0.5,0,-7
N#CC1=C(SCc2ccc(C#N)cc2)N=C(N)C(c2nc(-c3ccccc3)cs2)C12CCCCC2 (stereo unspecified),-3,5.1,4,28,.,.,.,-0.8,4,39
O=C(COc1ccccc1[N+](=O)[O-])N1CCN(S(=O)(=O)c2ccccc2)CC1,-4,-2.2,-12,-2,-10,-11,0.7,1.0,-5,0
Cn1ccnc1C(=O)c1ccc(Cl)c(S(=O)(=O)N2CCOCC2)c1,3,.,.,.,6,1,0.1,.,1,1
O=C(Cc1cccc2ccccc12)Nc1cccnc1,1,-6.7,.,0,7,1,2.2,1.0,6,-15
Cn1c(N)c(C(=O)COC(=O)COc2ccc(C#N)cc2)c(=O)n(C)c1=O,-13,-1.6,-4,1,2,0,-1.5,-0.8,-3,-13
COC(=O)c1cc(C)sc1NC(=O)CN1CCN(C(=O)c2ccco2)CC1,?,-3.5,.,1,14,12,7.3,2.1,3,13
COC(=O)c1ccc(NS(=O)(=O)c2cc(C)ccc2OC)cc1,-1,2.6,-1,2,.,.,.,0.3,5,-1
O=C(COc1cccc2ccccc12)Nc1nc2ccccc2[nH]1,.,-3.4,.,4,.,.,.,-0.4,2,.
CCc1ccc(C(=O)COC(=O)C(CCSC)NC(=O)c2ccccc2)cc1 (stereo unspecified),-1,-4.1,-9,-3,.,.,.,0.0,6,4
